FGF22 binding: shifts melting point of recombinant human FGF22; Q9HCT0; recombinant FGF22 thermal shift, SYPRO orange fluorescence; percent of sucrose octasulfate shift, DMSO zero; calls only at 9.99 µM; 340,000 compounds, 1.5% hits; AID 651658;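 active = melting point raised past a set limit in the mean and every replicate; inconclusive = no clear call; three in four hits are not shown here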
Target sequence (Q9HCT0 whole entry, looked up): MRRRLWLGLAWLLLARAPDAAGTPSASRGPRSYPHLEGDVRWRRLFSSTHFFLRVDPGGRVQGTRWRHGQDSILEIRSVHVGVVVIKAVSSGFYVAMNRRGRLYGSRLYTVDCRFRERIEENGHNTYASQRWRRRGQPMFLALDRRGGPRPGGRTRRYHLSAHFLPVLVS
Beta cell apopt: beta cell apoptosis inhibition. AID 435005. 300,000 compounds, 0.8% hits. protection from apoptosis, % (test concentration not listed). INS-1E cytokine-induced death, ATP luminescence, 48 h; percent of positive-control rescue, neutral wells zero;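 active = all replicates at 75% or more, or half of them and the mean; inconclusive = half reach 75% but not the mean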;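 note: 0% = cytokine-treated negative control wells and 100% = positive control rescue; higher means more ATP so stronger rescue from cytokine killing; wells of about 40 µL received 100 nL stock; the first replicate is given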
Calb FLC: C. albicans growth modulation with fluconazole; C. albicans CaCi-2 (fluconazole-resistant clinical isolate) + fluconazole, Alamar Blue growth, 48 h; growth inhibition, % (no concentration beside the values); 300,000 compounds, 0.57% hits;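 active = most replicates above 75%; inconclusive = exactly half above 75%; inactive = most below 75%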;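 note: all wells also contain fluconazole at 8 µg/ml as a sub-toxic cotreatment; 0% = median of DMSO wells and 100% = median of geldanamycin control wells; wells of about 8 µL received 7.5 nL stock; the first replicate is given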
rRNA inh HTS: selective bacterial rRNA inhibition in E. coli. E. coli WT GFP vs humanized-ribosome RFP mutants, fluorescence, 24 h; active compounds read low; DMSO median 0, no signal -100. GFP signal change (wild-type ribosome), % (concentration not given with the values). 350,000 compounds, 1.6% hits;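 active = significant combined selectivity score with lowered wild-type GFP, culture density cut under 30%, mutant RFP and density less affected; inactive = any of these conditions unmet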; note: one replicate is shown; some compounds called inactive have numbers as strong as hits
ALR H2O2 inh: blocks human ALR sulfhydryl oxidase activity | P55789 | purified ALR, DTT oxidation, H2O2 HRP-luminol luminescence | inhibition, % (no concentration beside the values) | 290,000 compounds, 3.8% hits | AID 485317;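 active = mean and each replicate at 75% or more; inconclusive = only one of the two met; inactive = neither met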;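 note: stock transfer was 7.5 nL into about 7.5 µL; 0% = neutral wells and 100% = wells with inactivated enzyme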
Target sequence (P55789 whole entry, looked up): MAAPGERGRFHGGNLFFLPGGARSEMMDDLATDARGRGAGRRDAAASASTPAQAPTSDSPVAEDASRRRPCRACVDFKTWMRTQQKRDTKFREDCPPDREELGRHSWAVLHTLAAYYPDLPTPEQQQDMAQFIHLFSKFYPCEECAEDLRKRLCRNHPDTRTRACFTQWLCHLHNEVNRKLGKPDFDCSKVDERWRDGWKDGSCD
T cruzi repl: blocks replication of Trypanosoma cruzi; AID 1885; inhibition, % (test concentration not listed); 300,000 compounds, 1.4% hits; T. cruzi beta-gal in NIH3T3, luminescence, 90 h;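 active = mean inhibition across valid replicates above about 55%, limit read from the data; inconclusive = mean below that limit but half or more replicates reach it; inactive = mean below it, under half of replicates reach it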;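 note: signal also drops with host cell toxicity which is not excluded here; 0% = plate median of DMSO wells and 100% = zero luminescence signal; higher percent means less beta-gal luminescence so fewer parasites; stock transfer was 50 nL into about 50 µL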
RanGTP-Impb inh: inhibitors of RanGTP-importin-beta interaction, primary screen, biochemical, FRET, CFP-Ran, YFP-importin-beta, homogeneous | cell-free CFP-Ran/YFP-importin-beta FRET ratio | inhibition, % (concentration not given with the values) | 300,000 compounds, 1.1% hits | AID 2216;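 active = most replicates above 15%; inconclusive = exactly half above 15%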;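 note: 0% = DMSO wells and 100% = Ran loaded with GDP instead of GTP; wells of about 40 µL received 100 nL stock; the first replicate is given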
MLL AF4-AF9 inh: blocks AF4 peptide binding to human AF9; P42568; AlphaScreen, biotin-AF4 peptide binding to FLAG-AF9; inhibition, % at 10 µM; 350,000 compounds, 0.47% hits; AID 651704;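 active = every replicate reaching a set inhibition limit, whatever the replicate mean, cut at about 25% in these data; inconclusive = mean inhibition reaches that limit but some replicates miss it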;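 note: 0% = plate neutral control median and 100% = total signal loss; the record names both 10 and 1 µM as test concentration; the first replicate is given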
Target sequence (P42568 whole entry, looked up): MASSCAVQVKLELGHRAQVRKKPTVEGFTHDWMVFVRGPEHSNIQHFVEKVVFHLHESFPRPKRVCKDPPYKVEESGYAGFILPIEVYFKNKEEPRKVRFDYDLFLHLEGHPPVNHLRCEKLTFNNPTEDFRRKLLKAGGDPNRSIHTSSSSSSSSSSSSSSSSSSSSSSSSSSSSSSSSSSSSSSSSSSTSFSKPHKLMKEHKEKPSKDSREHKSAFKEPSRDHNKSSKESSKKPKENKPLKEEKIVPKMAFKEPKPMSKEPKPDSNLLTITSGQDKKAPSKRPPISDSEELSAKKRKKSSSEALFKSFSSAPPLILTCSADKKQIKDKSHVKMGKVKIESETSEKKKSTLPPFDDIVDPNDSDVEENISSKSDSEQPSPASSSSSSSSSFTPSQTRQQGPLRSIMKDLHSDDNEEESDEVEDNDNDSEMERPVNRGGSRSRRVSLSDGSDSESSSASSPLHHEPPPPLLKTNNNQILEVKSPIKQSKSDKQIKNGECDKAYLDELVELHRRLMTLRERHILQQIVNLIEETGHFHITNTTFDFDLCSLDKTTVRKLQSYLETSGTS
rRNA inh HTS OD600: also measured in rRNA inh HTS; calls as there; OD600 change, %; measured here: OD600 growth;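 optical density of the mix in the first replicate; 0 = DMSO median and -100 = no signal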
rRNA inh HTS RFP: further read-out of rRNA inh HTS, marked with its call; RFP signal change, %; measured here: RFP humanized mutant strains;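 first replicate; 0 = DMSO median and -100 = no signal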
Numbers without * were called inactive; i = inactive; ? = inconclusive; nt = not tested or not shown. Some of the compounds tested; the hit share may differ from the screen's.

SMILES	FGF22 binding	Beta cell apopt	Calb FLC	rRNA inh HTS	rRNA inh HTS OD600	rRNA inh HTS RFP	ALR H2O2 inh	T cruzi repl	RanGTP-Impb inh	MLL AF4-AF9 inh
CCOc1ccc(S(=O)(=O)c2c(C(=O)c3ccc(C)cc3)cnc3cc4c(cc23)OCCO4)cc1	nt	-25	3	nt	nt	nt	-1	50	-5.1	nt
Cc1nc(-c2cccc(S(=O)(=O)N3CCCCC3)c2)cs1	i	2	4	-14	-7	8.2	23	-7	?	12
CN1CCN(C(=S)c2cn(Cc3ccccc3)c3ccccc23)CC1	i	1	9	-18	-33	-2.3	7	-11	-0.7	12
CCOc1ccc(-c2cc(N)n(S(=O)(=O)c3ccc(OC)c(OC)c3)n2)cc1	i	2	-13	7	12	-1.2	-4	-13	1.1	44*
CC1CCC(NC(=O)Cn2c(=O)[nH]c3ccsc3c2=O)CC1 (stereo not given)	nt	-1	7	nt	nt	nt	2	-16	2.7	nt
O=C(N1CCOCC1)N1CCN(c2nc(-c3ccc(F)cc3)cs2)CC1	nt	8	9	nt	nt	nt	28	-4	-4.3	nt
CC(=O)c1nn(-c2ccc(C)cc2)cc1C(=O)c1cccc(Br)c1	i	-1	-5	15	15	1.1	-14	5	-0.2	1.0
Cc1ccccc1OCC(=O)OC1CCN(C)CC1	nt	-5	-1	nt	nt	nt	-11	6	-0.5	nt
C[C@]12c3[nH]c4ccccc4c3CCN1C(=O)C(CC(=O)NCc1ccco1)C[C@@H]2C(=O)N1CCCCC1 (stereo not given in full)	i	-9	nt	-7	-4	-6.3	2	nt	nt	4.5
O=C(CSc1nnc(-c2ccccn2)n1-c1ccc(Cl)cc1)Nc1ccc2c(c1)OCO2	nt	1	?	nt	nt	nt	-1	-3	-4.3	nt
CCOc1ccc(Cl)cc1CSc1ncn[nH]1	i	-8	-24	-22*	-17*	1.4*	3	-15	-0.3	-0.3
COC(=O)c1ccc(C2C(C#N)=C(N)Oc3cc(C)n(C)c(=O)c32)cc1 (stereo not given)	nt	-5	-3	nt	nt	nt	0	-12	0.7	nt
N#Cc1cccc(C(=O)OCC(=O)NC(=O)NC2CCCCC2)c1	i	-7	-2	-2	-5	2.0	-1	?	3.3	2.3
COc1ccnc(CSC(N)=Nc2cccc(C(F)(F)F)c2)c1	i	5	-10	3	1	-1.2	-8	-20	4.6	-12
COc1ccccc1N1C(=O)CCC1(C#N)c1ccccc1 (stereo not given)	nt	0	0	nt	nt	nt	-15	-13	1.0	nt
C#CCN1C(=O)C(O)(c2c(C)[nH]c3ccccc23)c2ccccc21 (stereo not given)	i	nt	21	0	-12	0.8	-3	-18	-0.4	3.6
Cn1c(=N)n(CC(=O)O)c2ccccc21	nt	nt	15	nt	nt	nt	0	5	-1.3	nt
Cc1cc(NC(=O)CCC(=O)N(c2ccccc2)C(C)C(=O)NC2CCCC2)no1 (stereo not given)	i	-2	-1	0	4	-2.1	-1	-3	-0.2	3.3
COc1ccc(/C=C/C(=O)Nc2nnc(C(C)C)s2)cc1OC	i	-5	1	-5	3	-1.6	0	3	-2.0	-4.0
CC1CCCN(CC(O)CN)C1 (stereo not given)	nt	-11	-2	nt	nt	nt	34	-5	0.4	nt
CN(C)CCSc1nc(-c2ccccc2)nc2c1CCC2	i	3	-25	4	1	1.0	-2	44	-1.9	0.9
c1ccc(-c2nnc(N3CCN(c4ccccc4)CC3)nc2-c2ccccc2)cc1	i	6	0	-2	3	0.9	-1	35	3.7	-4.9
CCN(CC)S(=O)(=O)c1ccc(N=NC2=C(O)CCCC2=O)cc1	i	-4	-1	18	17	1.8	-12	-5	-0.3	-1.2
O=C(CCC1CCCNC1)c1ccccc1 (stereo not given)	nt	-4	-2	nt	nt	nt	66	-2	-1.5	nt
COc1ccc(/C=C/C(=O)NNC(=O)C(C)Oc2ccccc2F)cc1OC (stereo not given)	i	-10	nt	0	-15	-2.4	-6	nt	nt	-3.0
Continued.
SMILES	FGF22 binding	Beta cell apopt	Calb FLC	rRNA inh HTS	rRNA inh HTS OD600	rRNA inh HTS RFP	ALR H2O2 inh	T cruzi repl	RanGTP-Impb inh	MLL AF4-AF9 inh
CNS(=O)(=O)c1cccc(C(=O)Nc2cccc(Cl)c2)c1	nt	-2	9	nt	nt	nt	-1	7	-1.6	nt
Cc1nnc(NC(=O)c2ccc(S(=O)(=O)N3CC(C)OC(C)C3)cc2)o1 (stereo not given)	i	1	-4	-11	-7	-3.1	5	-6	3.1	0.3
CN(C)C(=O)CN1C(=O)NC2(CCCc3ccccc32)C1=O (stereo not given)	i	3	11	2	0	0.4	-3	-10	2.3	-2.2
CCOC(=O)c1nnc(-c2ccc(C)cc2)nc1Oc1ccc(Cl)cc1Cl	nt	3	-8	nt	nt	nt	7	2	-1.1	nt
COc1ccc(OC)c(CNC(=O)C2CCCN(C(=O)N(C)C)C2)c1 (stereo not given)	nt	-7	6	nt	nt	nt	-6	0	-3.5	nt
CCn1cc(SCC(=O)Nc2cc(C)on2)c2ccccc21	i	-5	9	-14	-13	-2.5	95*	-5	?	6.0
COc1cccc(CNS(=O)(=O)c2c(C)[nH]c(C)c2C(=O)N2CCCC2)c1	i	-6	-1	4	-16	9.7	-15	-15	0.0	2.1
NS(=O)(=O)c1ccc2nc(NC(=O)CS(=O)(=O)c3ccc(F)cc3)sc2c1	i	-3	8	4	-7	1.1	-5	-8	6.5	-13
Nc1nc(CN2CCCCCC2)nc(Nc2ccccc2)n1	nt	3	-8	nt	nt	nt	-21	-13	4.1	nt
Cc1ccc(CS(=O)(=O)c2ncc(Cl)c(C(=O)Nc3nnc(C(C)C)s3)n2)cc1	i	-7	-4	6	5	1.4	14	-9	-5.9	-0.7
COc1ccc(/C=N/OCC(=O)Nc2nc3ccccc3s2)cc1	nt	-1	108*	nt	nt	nt	1	2	?	nt
CCc1cc2c(=O)c(Oc3ccccc3F)c(C)oc2c(CN(C)C)c1O	nt	-2	26	nt	nt	nt	-2	-3	-1.7	nt
CN(CC(=O)Nc1cccc(F)c1)C(=O)C1CC(=O)N(Cc2ccco2)C1 (stereo not given)	i	0	2	1	10	-2.2	0	-14	2.2	8.3
Cc1ccc(-c2nnc(SCC(=O)N/N=C/c3ccc(C(=O)O)cc3)n2C2CCCCC2)cc1	i	-6	6	5	7	1.2	-33	8	2.7	0.5
O=C1CCCCN1CCC(=O)N1CCCC(N2CCN(c3ccccc3)CC2)C1 (stereo not given)	i	-5	4	9	9	-0.4	93*	-5	0.3	1.1
CCC(C)NC(=O)CSc1nnc(-c2ccc(Cl)cc2)n1N (stereo not given)	i	-6	-18	13	5	-4.1	-3	-8	-0.7	4.7
Cc1occc1C(=O)Nc1nnc(C(F)(F)F)s1	nt	22	57	nt	nt	nt	9	-11	0.5	nt
O=c1c2ccccc2nc2n1C(CBr)CN2 (stereo not given)	i	-2	1	8	6	-2.7	-10	21	-1.7	-1.3
Brc1ccc(-c2ccccc2)cc1	i	-3	nt	3	1	-0.4	1	nt	nt	nt
C/C(CC(=O)Nc1ccc(N(C)C)cc1)=N\NC(=O)c1ccc([N+](=O)[O-])cc1Cl	i	3	0	8	13	-0.2	100*	-15	-0.9	3.8
Cn1c(CNC(=O)CNS(=O)(=O)c2ccc(Br)cc2)cc(=O)n(C)c1=O	i	0	nt	3	14	-0.3	1	-11	3.8	-14
COc1ccccc1/C=C/C(=O)c1c2c(c(C)[nH]c1=O)CCCC2	i	-16	-10	9	12	2.5	3	-12	nt	6.6
CCCOC(=O)c1c(-c2ccc(C)cc2C)csc1NC(=O)C1C2CCC(O2)C1C(=O)O (stereo not given)	i	-2	19	-24	-38	-7.2	nt	-12	?	-0.4
CCCN(CCC)S(=O)(=O)c1ccc(C(=O)Nc2nnc(-c3cc(OC)cc(OC)c3)o2)cc1	nt	nt	0	nt	nt	nt	5	58*	?	nt
Cc1ccc(C)c(OCCC(=O)OCC(=O)NC2CC2)c1	i	3	-12	4	11	0.5	-3	12	-1.1	-7.0
Carrying on:
SMILES	FGF22 binding	Beta cell apopt	Calb FLC	rRNA inh HTS	rRNA inh HTS OD600	rRNA inh HTS RFP	ALR H2O2 inh	T cruzi repl	RanGTP-Impb inh	MLL AF4-AF9 inh
N#C/C(=C\c1c[nH]c2ccccc12)C(=O)NCC1CCCO1 (stereo not given)	i	1	3	-11	-17	-2.6	-5	16	-2.7	-0.6
COCCN(C(=O)COC(=O)/C=C/c1cccc(C(F)(F)F)c1)c1c(N)n(CC(C)C)c(=O)[nH]c1=O	i	4	nt	6	10	-1.4	1	nt	nt	-0.3
Cc1ccc([C@@H]2C3COCC=C3C(C#N)=C(N)C2(C#N)C#N)o1 (stereo not given in full)	i	nt	11	36	14	20	nt	-14	-6.2	5.8
CC(C)NC(=O)c1sc2c(c1C(=O)Nc1cccnc1)CCCC2	i	5	0	2	3	6.4	23	14	3.6	nt
O=C(c1ccc(OC2CCN(CCc3ccccc3)CC2)cc1)N1CCCCC1CCCO (stereo not given)	i	-4	-6	8	5	0.3	-2	3	-1.6	0.8
Cc1ccc(N2C(=O)c3ccc(N)cc3C2=O)cc1C	nt	2	-2	nt	nt	nt	6	2	-0.2	nt
CC(=O)c1ccc(N2CCN(S(=O)(=O)c3ccc4ccccc4c3)CC2)cc1	i	-9	nt	-2	-3	-0.3	-1	nt	nt	0.2
Fc1ccccc1OCCCCN1CCCCC1	i	2	-13	18	10	2.0	6	18	1.1	1.7
CCCCn1c(SCC(=O)NC2CCS(=O)(=O)C2)nc2ccccc2c1=O (stereo not given)	i	-1	2	16	11	6.4	-15	10	-1.0	-6.3
CCc1ccc(N=C2NC(=O)/C(=C/c3ccc(OCC(=O)O)cc3)S2)cc1	i	-3	2	0	11	-2.0	98*	6	0.7	-11
COC(=O)[C@@H](NCc1cccc(CN[C@H](C(=O)OC)C(C)C)c1)C(C)C	i	nt	-2	7	4	-1.1	9	-10	4.6	-2.6
CC1(C)CCc2c([nH]c3ccccc3c2=O)O1	i	-10	-5	nt	nt	nt	53	-15	-0.2	-3.0
Cc1cc(NC(=O)c2cc(-c3ccccn3)nc3ccccc23)no1	nt	2	37	nt	nt	nt	0	3	1.0	nt
O=C(NCCc1ccccc1)Oc1ccc(Cl)cc1	i	nt	-19	-4	24	-2.7	nt	-5	6.3	-4.5
CCOC(=O)C(=NCC1CCCO1)NNc1cc(Cl)ccc1Cl (stereo not given)	i	-4	-10	-10	-6	-4.0	99*	-11	-1.6	7.6
COc1cc(C#Cc2c(-c3cncn3C)n(C)c3ccc(-c4ccc(CN5CCOCC5)cc4)cc23)cc(OC)c1	i	27	nt	7	7	-2.4	8	nt	nt	8.5
CCn1c(C)nc2c1C(=O)c1ccccc1C2=O	nt	22	22	nt	nt	nt	-59	-9	-2.2	nt
CC1NC2(C(=O)N(Cc3ccccc3)c3ccccc32)C2C(=O)N(c3ccccc3)C(=O)C12 (stereo not given)	i	nt	9	-7	-12	1.2	nt	8	0.5	9.0

High-throughput results from PubChem BioAssay.
